Bioassay records: PubChem BioAssay, NMMLSC
Bead autofluor = compound fluorescence in toxin protease inhibitor counterscreen | 360,000 tested, 3.1% active | fluorescence intensity (test concentration not listed) | compound autofluorescence counterscreen, microsphere flow cytometry; hits give high values;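 active = at least 3 SD above the mean of all compounds, about 16000 in these data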;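 note: 100 nL of 1 mM stock went into each well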
An asterisk follows results filed as active.

| Molecule | Bead autofluor |
| --- | --- |
| COc1ccc(C(=O)CC(c2ccc(OC)c(OC)c2)c2c(O)c3ccccc3oc2=O)cc1OC (stereo unspecified) | 2744 |
| OC(c1ccc(F)c(F)c1)c1nc(-c2csc3ccccc23)cs1 (stereo unspecified) | 3392 |
| OC[C@@H]1CN(Cc2cccc(C(F)(F)F)c2)C[C@H](n2cnc3c(NCc4ccncc4)ncnc32)O1 | 4141 |
| COCCNC(=O)C1(C)CCCN(C(=O)c2cc(OC)c(OC)c(OC)c2)C1 (stereo unspecified) | 3032 |
| FC(F)(F)c1ccccc1Cc1c(C2CCCCC2)nc2c3ccccc3ccn12 | 4672 |
| C#CCN(C[C@@H]1[C@@H](OC(=O)NCc2ccccc2F)[C@@H](OC(=O)NCc2ccccc2F)CN(C(=O)OC(C)C)N1C(=O)OC(C)C)S(=O)(=O)c1ccc(C)cc1 | 3365 |
| COc1ccc(N2CCN(C(=O)CCCCCn3c(=S)[nH]c4ccc(N5CCOCC5)cc4c3=O)CC2)cc1 | 4055 |
| CC(C)c1cccc(-c2csc(C(O)c3ccc(F)cc3)n2)c1 (stereo unspecified) | 2912 |
| O=S(=O)(c1ccccc1)N1CCN(Cc2nnc(-c3ccccc3)o2)CC1 | 3598 |
| CCNC(=O)C1(C)CCN(C(=O)c2cccnc2SC)C1 (stereo unspecified) | 3122 |
| CC(C)(C)OC(=O)N1CCc2onc(-c3ccc(Cl)cc3)c2C1=O | 3868 |
| O=c1[nH]c2cc(O)ccc2c2ccccc12 | 4093 |
| O=[N+]([O-])c1nccn1CC(O)CO (stereo unspecified) | 6386 |
| O=C1NCN(c2ccccc2)C12CCN(C(c1cccc3ccccc13)c1nnnn1-c1ccc3c(c1)OCCO3)CC2 (stereo unspecified) | 6320 |
| CC(C)C[C@H]1CN(CCCC[C@@H]2CNC(=O)C(=O)N2CC2CCCCC2)C(=O)C(=O)N1CCc1ccc(O)cc1 | 6081 |
| Nc1[nH]c(C(=O)c2ccccc2)c(-c2ccc(Cl)cc2)c1C(=O)NCc1ccccc1 | 4680 |
| COC(=O)c1ccc(N2C(c3ccsc3)=Cc3cc4c(cc3C2CC(=O)c2ccco2)OCO4)cc1 (stereo unspecified) | 6069 |
| COc1ccc(OC)c(C=NN=Cc2cc(OC)ccc2OC)c1 | 3035 |
| COCCNC(=O)C1(C)CCCN(C(=O)c2cccc3ccccc23)C1 (stereo unspecified) | 3736 |
| OC(c1ccc(F)c(F)c1)c1ncc(-c2cccc(C(F)(F)F)c2)[nH]1 (stereo unspecified) | 3657 |
| CNc1ccc(Cl)cc1S(=O)(=O)c1ccccc1[N+](=O)[O-] | 4275 |
| CCOC(=O)C1(c2ccccc2)SC(C(=O)OCC)(c2ccccc2)S1 (stereo unspecified) | 3832 |
| CC(=O)NCCNc1nc2cc(-c3cccc(Cl)c3)sc2c(=O)n1C | 2864 |
| Cc1nc(C(F)(F)F)ccc1C(=O)N1CCCC1(C)C(=O)NCC(C)C (stereo unspecified) | 3680 |

7 compounds drawn at random from those above, as already listed:
| Molecule | Bead autofluor |
| --- | --- |
| CC(C)c1cccc(-c2csc(C(O)c3ccc(F)cc3)n2)c1 (stereo unspecified) | 2912 |
| Cc1nc(C(F)(F)F)ccc1C(=O)N1CCCC1(C)C(=O)NCC(C)C (stereo unspecified) | 3680 |
| COc1ccc(N2CCN(C(=O)CCCCCn3c(=S)[nH]c4ccc(N5CCOCC5)cc4c3=O)CC2)cc1 | 4055 |
| COc1ccc(OC)c(C=NN=Cc2cc(OC)ccc2OC)c1 | 3035 |
| OC[C@@H]1CN(Cc2cccc(C(F)(F)F)c2)C[C@H](n2cnc3c(NCc4ccncc4)ncnc32)O1 | 4141 |
| O=[N+]([O-])c1nccn1CC(O)CO (stereo unspecified) | 6386 |
| CCOC(=O)C1(c2ccccc2)SC(C(=O)OCC)(c2ccccc2)S1 (stereo unspecified) | 3832 |

Next section:
| Molecule | Bead autofluor |
| --- | --- |
| CC1(c2nc3ccccc3[nH]2)CCC(=O)N1Cc1cccs1 (stereo unspecified) | 5888 |
| N#Cc1ccc(NC(=S)NC(=O)C2CC2)cc1 | 3013 |
| CC(C)c1ccc(NC(=O)C2Cc3c(-c4ccco4)ccnc3O2)cc1 (stereo unspecified) | 4183 |
| CN(Cc1ccccc1)C(=O)[C@@H]1CCCN1C(=O)[C@@H]1CCCN1C(=O)c1cccc(Cl)c1 | 6490 |
| N#Cc1ccc(-c2nc3c(Cl)cc(C(F)(F)F)cn3c2Cc2ccsc2)cc1 | 5555 |
| CC1(C(=O)NS(=O)(=O)c2cccs2)CCN1C(=O)Cc1ccc(Cl)cc1Cl (stereo unspecified) | 3029 |
| CC(C)C[C@@H]1O[C@H](C(C)C)Cc2[nH][nH]c(=O)c21 | 6182 |
| Cn1c(=O)c2c(ncn2CC(=O)OCC(=O)Nc2cccc(C#N)c2)n(C)c1=O | 2845 |
| O=C(NCc1ccc(F)cc1)C1CCCN1S(=O)(=O)c1ccc(F)cc1 (stereo unspecified) | 3488 |
| O=C(Nc1ccccc1)c1ccccc1Br | 3567 |
| COc1ccc(CNC(=O)c2ccc(CS(=O)(=O)c3ccc(OC)cc3)o2)cc1 | 3120 |
| CCc1nc2c(OCCOC)cccn2c1N(C)C(=O)Nc1ccccc1OC | 2850 |
| C[C@@H]1CN([C@H](C)CO)C(=O)CCCn2nncc2CO[C@H]1CN(C)C(=O)c1cc(-c2ccccc2)on1 | 3992 |
| Cc1cccc(C)c1NC(=O)C(c1ccccc1)N1CCC(Cc2ccccc2)CC1 (stereo unspecified) | 5355 |
| CCOC(=O)CC1C(=O)NCCN1C(=S)NC(=O)c1ccc(C)c(Br)c1 (stereo unspecified) | 3357 |
| COc1cc(CN2C[C@@H](CO)O[C@@H](n3cnc4c(Nc5ccccc5)ncnc43)C2)cc(OC)c1OC | 3910 |
| CC(C)C1C(=O)N(Cc2cn(Cc3ccco3)nn2)CCS(=O)(=O)N1Cc1ccc(-c2ccc(F)cc2)cc1 (stereo unspecified) | 3350 |
| CNc1cccc(-c2ccc(C(=O)N3CCOCC3)cc2)n1 | 3773 |
| CN(C)c1cccc(CNC(=O)c2csc([C@@H]3O[C@H](CO)[C@@H](O)[C@H]3O)n2)c1 | 3435 |
| Cc1ccc(NC(=O)c2ncn(CCCNCC3CCCCC3)n2)cc1C | 3073 |
| COc1cc(NC(=O)Nc2nnc([C@H]3C[C@H](O)[C@@H](CO)O3)s2)cc(OC)c1 | 3515 |
| O=C(NCc1cccnc1)c1cc(C2CCCCN2C(=O)c2ccc3c(c2)CCO3)on1 (stereo unspecified) | 3192 |
| COc1ccc(C(C)(NC(C)=O)c2nc(-c3ccc(F)cc3OC)cs2)cc1 (stereo unspecified) | 4183 |
| COc1ccc(C=NCCc2ccc(OC)c(OC)c2)cc1OC | 3972 |
| CCOC(=O)C1=C(C)OC(=Cc2ccccc2)C1=O | 3955 |
| Cc1nc(-c2ccc(F)cc2)c(CC(=O)N(C)CC(=O)Nc2cccc(F)c2)s1 | 4001 |
| O=C(NCCN1CCC(n2c(=O)[nH]c3ccccc32)CC1)c1ccc(F)c(C(F)(F)F)c1 | 5754 |
| CC1(C(=O)NS(=O)(=O)c2ccc(C#N)cc2)CCN1C(=O)Cc1ccsc1 (stereo unspecified) | 3783 |
| CCc1nc2ccc(C(=O)NCc3ccc4c(c3)OCO4)cn2c1N(C)Cc1cccs1 | 3893 |
| COC(=O)[C@@]1(Sc2ccc(C)cc2)CC(=O)N(C(=O)c2ccccc2)[C@@H]1c1ccccc1 | 5925 |
| Cc1nc2ccccn2c(=O)c1NC(=O)c1ccco1 | 3419 |
| Clc1cccc(-c2nc3ccc(Cl)cn3c2Cc2ccsc2)c1 | 7938 |
| COc1ccc(N2CCN(CC(=O)Nc3ccccc3C(=O)NC(C)c3ccccc3)CC2)cc1 (stereo unspecified) | 3763 |
| CC1=C(C(=O)N(C)C)CC(CC(=O)NCCc2ccccn2)C(=O)N1Cc1ccccc1 (stereo unspecified) | 3682 |
| Cc1ccc(C(=O)Nc2nc(C(N)Cc3ccc(C(F)(F)F)cc3)cs2)cc1 (stereo unspecified) | 3753 |
| Cc1ccc(C(O)c2ncc(-c3ccc4ccccc4c3)[nH]2)cc1F (stereo unspecified) | 3588 |
| O=C(Nc1ccn(CCOC(=O)c2ccccc2)c(=O)n1)c1ccccc1 | 5836 |
| CCOC(=O)c1cc(Cl)c2c(ccc3ccccc32)n1 | 3650 |
| CC(C)C[C@H]1CNC(=S)N1C[C@H]1CCCN1C[C@H](Cc1ccc(O)cc1)N1C[C@H](CC(C)C)N(CC2CCCCCC2)C1=S | 5627 |
| O=C(NCc1ccc(Br)cc1)OC1CC2CC1[C@H]1CCCCN1C2=O (stereo partly specified) | 5469 |
| CCCC(=O)N1CCC1(C)C(=O)NS(=O)(=O)c1cccc(F)c1 (stereo unspecified) | 3758 |
| CCOC(=O)[C@]12CCC=C1N(Cc1ccc(Cl)cc1Cl)C(=O)[C@H](CC(=O)NCc1cccc(C(F)(F)F)c1)C2 | 5637 |
| COCCCN1C(=O)C(CC(=O)NCCN2CCOCC2)CC(C(=O)N2CCOCC2)=C1C (stereo unspecified) | 5238 |
| Cn1c(NCCN2CCCC2)nc2cc(-c3ccsc3)sc2c1=O | 3747 |
| CC(=O)C1=CCC(c2ccc(C)cc2)N(S(=O)(=O)c2ccc(C)cc2)C1 (stereo unspecified) | 4558 |
| COc1cc(CN2C[C@@H](CO)O[C@@H](n3cnc4c(N5CCN(C)CC5)ncnc43)C2)cc(OC)c1OC | 3870 |
| COc1ccc(NC(=O)c2cccc3c(-c4cccnc4)coc23)cc1 | 3932 |
| CC1(C(=O)Nc2ccc(Cl)cc2)Cc2c(-c3cccc(C(N)=O)c3)ccnc2O1 (stereo unspecified) | 3905 |
| O=C1c2ccccc2C(c2nnnn2Cc2ccccc2)N1Cc1ccc2c(c1)OCO2 (stereo unspecified) | 4167 |
| CCc1nc2ccc(C(=O)NCc3ccc4c(c3)OCO4)cn2c1N(C)Cc1ccc(OC)cc1 | 3109 |
| COc1ccccc1OCC(=O)N1CCCCCC1 | 3950 |
| CCCCn1nnnc1C(CCc1ccccc1)N1CCN(C/C=C/c2ccccc2)CC1 (stereo unspecified) | 4544 |
| CC(N)c1csc(NC(=O)Nc2cccc(C(F)(F)F)c2)n1 (stereo unspecified) | 2898 |
| CCc1nc2ccc(C(=O)Nc3ccc4c(c3)OCC(=O)N4)cn2c1N(CC)Cc1cccc(Br)c1 | 3463 |
| O=C1NC[C@H](CCCCN2C[C@H](Cc3ccccc3)N(CCc3ccc(O)cc3)C(=O)C2=O)N(CCc2ccccc2)C1=O | 4159 |
| C[C@H](CO)N1C[C@H](C)[C@H](CN(C)S(=O)(=O)c2cccc(F)c2)OCc2ccccc2-c2c(n(C)c3ccccc23)C1=O | 3091 |

Other records.
| Molecule | Bead autofluor |
| --- | --- |
| Cc1ccccc1CNC(=O)c1csc([C@H]2C[C@H](O)[C@@H](CO)O2)n1 | 3733 |
| COc1cc(C=NNC(=S)Nc2ccc(S(=O)(=O)N3CCCCC3)cc2)cc(OC)c1OC | 3324 |
| CN1CCC(C)(C(=O)Nc2ccc3c(c2)OCCO3)C1 (stereo unspecified) | 4121 |
| O=C(O)CN1C(=O)C2C3CCC(C3)C2C1=O (stereo unspecified) | 3916 |
| COc1ccc(Cl)cc1-c1noc([C@@H]2O[C@H](CO)[C@H](O)[C@H](O)[C@H]2O)n1 | 3202 |
| Cc1ccc(NC(=O)C2(C)CCN2C(=O)C2CCCCC2)cc1C (stereo unspecified) | 3792 |
| O=C(O)CCC(C(=O)O)N1C(=O)C2C3CCC(C3)C2C1=O (stereo unspecified) | 3830 |
| Cc1ccsc1-c1cc2nc(NCCCN(C)C)n(C)c(=O)c2s1 | 3755 |
| Oc1ccc(C[C@H]2CN([C@@H](Cc3ccc(O)cc3)CN3CCC[C@@H]3CN3C(=S)NC[C@@H]3Cc3ccccc3)C(=S)N2CC2CCCCCC2)cc1 | 5879 |
| Cc1ccc(CN2CC(N3CCC(c4ccccc4)CC3)CS2(=O)=O)cc1 (stereo unspecified) | 5369 |
| COC(=O)[C@]12CCCCC=C1N(Cc1cccc3ccccc13)C(=O)[C@H](CC(=O)N1CCOCC1)C2 | 4205 |
| COc1ccc(Nc2c(CCc3ccccc3)nc3nc(C)cc(C)n23)cc1 | 4647 |
| CCCCn1nnnc1C1(C)CCC(=O)N1Cc1ccc(C)cc1 (stereo unspecified) | 4084 |
| CS(=O)(=O)Nc1ccc(F)cc1 | 6307 |
| CC1(C(=O)Nc2cccc(NS(C)(=O)=O)c2)CCN1CCc1ccccc1 (stereo unspecified) | 3668 |
| CC(C)c1ccc(NC(=O)C2(C)Cc3c(-c4ccc(C(N)=O)cc4)ccnc3O2)cc1 (stereo unspecified) | 3770 |
| COc1cccc(/C=C/C(=O)OCC(=O)Nc2ccc3c(c2)OCO3)c1 | 3032 |
| CCOC(=O)C(CC)c1cc2n(c(=O)c1C#N)CCC21OCCO1 (stereo unspecified) | 5622 |
| COCCCN1C(=O)C(CC(=O)NC2CCCC2)CC(C(=O)N2CCOCC2)=C1C (stereo unspecified) | 3013 |
| Cc1ccc(OCC(=O)Nc2ccncc2)cc1C | 4062 |
| COc1cccc(-c2cc3nc(NCCOc4ccccc4Cl)n(C)c(=O)c3s2)c1 | 3585 |
| Cc1cc(=O)n2nc(N3CCCC(C(=O)NCCCN4C(C)CCCC4C)C3)sc2n1 (stereo unspecified) | 3459 |
| CCOC(=O)c1c(C)[nH]c(C)c1C(=O)COC(=O)/C=C/c1cccc([N+](=O)[O-])c1 | 3779 |
| Oc1cccc(-c2csc(C(O)(c3ccccc3)C(F)(F)F)n2)c1 (stereo unspecified) | 3136 |
| CC(C)CN1CCN(C(=O)COC(=O)c2ccc(S(C)(=O)=O)c([N+](=O)[O-])c2)CC1 | 3505 |
| CC(=O)Nc1cnc(-c2cccc(C(=O)N(C)C)c2)cn1 | 3102 |
| CCCCOc1ccc(C(=O)NCC(=O)N2CCN(C/C=C/c3ccccc3)CC2)cc1 | 3780 |
| COCCNC(=O)C1CCCN(C(=O)COCc2ccccc2)CC1 (stereo unspecified) | 3757 |
| O=C(Nc1nnc([C@@H]2C[C@H](O)[C@@H](CO)O2)s1)c1cccc2ccccc12 | 3775 |

A portion of the library (hit frequency here may not be typical).
